Compound activity from PubChem BioAssay.
SARS PLpro yeast = SARS-CoV PLP inhibition in yeast. Potency, µM (top dose mostly 32.9 µM), without a hit: at the highest dose activity, positive = growth rescue. S. cerevisiae expressing SARS-CoV PLpro, growth rescue; control for the full effect not named in the record. 330,000 compounds, 0.19% hits; active means well fitted rising curve with a large enough effect; inconclusive means small, poorly fitted or top-dose-only effect; inactive means no such curve, though single readings can be large or run the other way; note: 0% is about no effect; nearly all actives have a fitted effect of over 55% in size; growth read by luminescence after 48 h
2A StopGo = FMDV 2A StopGo reporter, luciferase signal. human cells with a luciferase reporter of 2A StopGo recoding; control for the full effect not named in the record. Potency, µM (titrated, usually from 57.9 µM), inactives show at the top dose signal change, negative = less light. 410,000 compounds, 1.2% hits; active = well fitted falling curve with a large enough effect; inconclusive = small, poorly fitted or top-dose-only effect; inactive = no such curve, though single readings can be large or run the other way; tested in HEK293T cells; note: % is set by controls: 0 for no effect and ±100 for the full control effect; nearly all actives have a fitted effect of over 45% in size; luciferase light after 4 h
Cruzain inh noDet = cruzain (T. cruzi) inhibition without detergent; AID 1476; 200,000 compounds, 2.3% hits; purified cruzain, Z-FR-AMC fluorescence, no detergent; P25779; Potency, µM, for inactives: max response, negative = inhibition, actives largely listed as inhibitors;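 note: plate controls were enzyme without inhibitor for no effect and buffer without enzyme for full effect; nearly all actives have a fitted effect of over 40% in size; top concentration of the series not given in the record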
Target sequence (P25779 123-467 limits assumed): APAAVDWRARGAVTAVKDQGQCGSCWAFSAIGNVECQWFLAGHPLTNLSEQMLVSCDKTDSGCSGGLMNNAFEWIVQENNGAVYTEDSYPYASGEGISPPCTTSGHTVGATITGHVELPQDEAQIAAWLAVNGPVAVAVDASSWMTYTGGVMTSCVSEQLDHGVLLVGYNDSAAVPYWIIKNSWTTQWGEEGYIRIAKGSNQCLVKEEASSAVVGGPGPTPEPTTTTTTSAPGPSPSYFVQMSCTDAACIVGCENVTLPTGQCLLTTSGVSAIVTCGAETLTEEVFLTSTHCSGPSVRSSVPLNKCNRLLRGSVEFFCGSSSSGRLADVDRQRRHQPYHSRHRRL
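Purified cruzain at 1.5 nM, pre-incubated 15 min with compound at room temperature in 100 mM sodium acetate pH 5.5, 5 mM DTT, 0.00005% Triton X-100. Reaction started with 2 uM Z-FR-AMC; AMC fluorescence increase over 60 s gives rate.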
RE007 growth inh = less growth of the S. pombe RE007 Vpr strain; 360,000 compounds, 0.21% hits; S. pombe RE007 Vpr strain, BacTiter-Glo ATP luminescence, 24 h; control for the full effect not named in the record; AID 651644; Potency, µM (series often up to 92.2 µM), inactives show top-dose activity change, negative = less growth; active = well fitted falling curve with a large enough effect; inconclusive = small, poorly fitted or top-dose-only effect; inactive = no such curve, though single readings can be large or run the other way;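 note: % is set by controls: 0 for no effect and ±100 for the full control effect; nearly all actives have a fitted effect of over 50% in size; the assay follows cell death caused by Vpr and the record does not say whether a fall means rescue or toxicity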
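Fission yeast RE007 carrying one integrated HIV-1 vpr copy, seeded at OD 0.01 in PMG+AL medium with 23 nL pinned compound. Grown 24 h at 30 degrees; viability read by BacTiter-Glo luminescence after 5 min.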
LASV entry inh = inhibitors of Lassa virus binding or cell entry. Lassa virus pseudotype entry inhibition, cell reporter; control for the full effect not named in the record. Potency, µM (series often up to 37.9 µM), for inactives: top-dose activity change, negative = inhibition, usual class: inhibitors. 300,000 compounds, 1.2% hits; active means well fitted inhibition curve with a large enough effect; inconclusive means small, poorly fitted or top-dose-only effect, or effect the other way; inactive means flat fitted curve, though single readings scatter; tested in HEK293 cells; note: % is set by controls: 0 for no effect and ±100 for the full control effect; nearly all actives have a fitted effect of over 50% in size; luciferase read-out
Marburg entry inh = blocks Marburg virus binding to or entry into cells. Marburg virus pseudotyped entry inhibition, cell reporter; control for the full effect not named in the record; about a third of the inactives were read at about 46 µM. Potency, µM (series often up to 37.8 µM), inactives show at the highest dose activity change, negative = inhibition, usual class: inhibitors. 300,000 compounds, 1.8% hits; active = well fitted inhibition curve with a large enough effect; inconclusive = small, poorly fitted or top-dose-only effect, or effect the other way; inactive = flat fitted curve, though single readings scatter; tested in HEK293 cells; about a fifth of its hits are not listed in these tables; note: % is set by controls: 0 for no effect and ±100 for the full control effect; luciferase read-out
NS1 inh = inhibitors of influenza NS1 protein function. S. cerevisiae slowed by influenza A NS1, growth recovery by OD600. 270,000 compounds, 0.4% hits. Potency, µM (titrated, usually from 46.1 µM), for inactives: at the top dose activity, positive = more growth. AID 2326; active means well fitted rising curve with a large enough effect; inconclusive means small, poorly fitted or top-dose-only effect; inactive means no such curve, though single readings can be large or run the other way; note: nearly all actives have a fitted effect of over 50% in size
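Recovery from NS1-induced slow growth read by OD600 in budding yeast switched to galactose assay medium (pH 6.0, -URA) at 1:100 dilution. Compound 23 nl per well; the matching strain lacking NS1 serves as control.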
Cruzain Triton = inhibitors of Trypanosoma cruzi cruzain with detergent. 200,000 compounds, 0.43% hits. Potency, µM, without a hit: max response, negative = inhibition, hits mostly inhibitors. purified cruzain, Z-FR-AMC fluorescence, 0.01% Triton. P25779;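 note: plate controls were neutral wells for no effect and buffer without enzyme for full effect; nearly all actives have a fitted effect of over 40% in size; top concentration of the series not given in the record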
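Compounds were screened in titration against cruzain (1.5 nM) with 0.01% Triton X-100 to counter colloidal aggregation. Activity was the AMC fluorescence increase over 60 s after adding 2 uM Z-FR-AMC at pH 5.5.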
Numbers without * were called inactive; & = joins results of further samples; [ ] = another dose, or the depositor's remark. Unless noted, calls come from the whole dose curve; as a rule, active = well fitted curve in the direction sought with a large enough effect; inconclusive = small, poorly fitted or top-dose-only effect, or another doubt; inactive = no such curve, though single readings can be large; an effect the other way counts as inactive or inconclusive. Potency is the fitted concentration of half-maximal effect. An unsorted share of the library, and some 4.8% of all compounds hit somewhere here.

`COC(=O)c1c(C)n(-c2ccccc2)c2ccc(O)cc12` gave SARS PLpro yeast -9%, 2A StopGo inconclusive, Cruzain inh noDet -16%, RE007 growth inh 5%, LASV entry inh inconclusive, Marburg entry inh inconclusive, NS1 inh -19% and Cruzain Triton -7.5%.
CC(NCc1ccc(S(N)(=O)=O)cc1)C(=O)Nc1cccc(Cl)c1 (stereo not given) was read as SARS PLpro yeast -1%, 2A StopGo -14%, RE007 growth inh 7% and NS1 inh 3%.
Cc1ccc(C(=O)Nc2ccc(C(=O)N/N=C/c3ccccn3)cc2)cc1 was read as SARS PLpro yeast -2%, 2A StopGo -14%, RE007 growth inh 8%, LASV entry inh -8%[46.1 µM], Marburg entry inh -2%[46.1 µM] and NS1 inh 15%.
For C/C(=N\NC(=O)Cc1cccn1C)c1ccc([N+](=O)[O-])cc1 the results were SARS PLpro yeast 0%, 2A StopGo 5%, RE007 growth inh -12% and NS1 inh 5%.
`S=C(NC12CC3CC(CC(C3)C1)C2)N1CCCC1` gave SARS PLpro yeast 14%, 2A StopGo -23%, Cruzain inh noDet -8%, RE007 growth inh 20%, LASV entry inh 0%, Marburg entry inh 7%, NS1 inh 0% and Cruzain Triton -0.9%.
Cc1ccccc1CNC(=O)CCSCc1cnn(-c2ccccc2)c1-n1cccc1 was read as 2A StopGo -18%, Cruzain inh noDet inconclusive, LASV entry inh -12%[46.1 µM], Marburg entry inh -16%[46.1 µM] and Cruzain Triton -6.8%.
Screening COc1ccc(CC(=O)NCC2CCCN(Cc3cc(OC)cc(OC)c3)C2)cc1 (stereo not given) returned SARS PLpro yeast 2%, 2A StopGo -11%, RE007 growth inh 3% and NS1 inh -4%.
For CCC(CC)C(=O)Nc1ccc(C)cc1O the results were SARS PLpro yeast 0%, 2A StopGo 19%, RE007 growth inh 1%, LASV entry inh 9%, Marburg entry inh 23%[46.1 µM] and NS1 inh 7%.
COc1ccc(CCNC(=O)CCc2c(C)nc3cc(-c4ccc(Cl)cc4)nn3c2C)c(OC)c1 was read as 2A StopGo -9%, Cruzain inh noDet -2%, LASV entry inh 4%[46.1 µM], Marburg entry inh 10%[46.1 µM] and Cruzain Triton 2.0%.
`CC(C)OC(=O)c1cc(C(=O)c2cc(Cl)ccc2O)coc1=N` gave SARS PLpro yeast 1%, 2A StopGo -4%, RE007 growth inh 2%, LASV entry inh -12% and Marburg entry inh -17%[46.1 µM].
COc1ccc(OC)c(N(CC(=O)NCCSCc2ccc(C)cc2)S(C)(=O)=O)c1 was read as SARS PLpro yeast 1%, 2A StopGo inconclusive, RE007 growth inh 16%, LASV entry inh -12%, Marburg entry inh 0% and NS1 inh 4%.
Screening CCOc1ccc(C2=CSC3=NCCN23)cc1[N+](=O)[O-] returned SARS PLpro yeast -3%, 2A StopGo 16%, RE007 growth inh -10%, LASV entry inh inconclusive, Marburg entry inh 14% and NS1 inh 6%.
Screening COc1ccc(NC(=O)c2ccc3ccccc3c2)cc1NS(=O)(=O)c1ccc(F)cc1 returned SARS PLpro yeast -4%, 2A StopGo 0%, Cruzain inh noDet inconclusive, RE007 growth inh -3%, LASV entry inh inconclusive, Marburg entry inh -6%, NS1 inh -6% and Cruzain Triton -4.7%.
Cc1c(C(=O)NC(C)c2ccccn2)oc2c(Cl)cccc12 (stereo not given) was read as SARS PLpro yeast 8%, 2A StopGo -13%, RE007 growth inh 4%, LASV entry inh 4% and Marburg entry inh 2%.
For C=C(C)c1ccccc1NC(=O)CCN1C(=O)c2ccccc2S1(=O)=O the results were SARS PLpro yeast 18%, 2A StopGo -2%, RE007 growth inh 6%, LASV entry inh -9%[46.1 µM], Marburg entry inh -11%[46.1 µM] and NS1 inh -4%.
CCOC(=O)CN1C(=O)N[C@@H](c2ccccc2)C(C(=O)OC)=C1C was read as SARS PLpro yeast 0%, 2A StopGo 0%, Cruzain inh noDet -5%&-3%, RE007 growth inh 0%, LASV entry inh 6%, Marburg entry inh 6%, NS1 inh -7% and Cruzain Triton 6.0%&0.8%.
For CCc1ccc(NCc2cc3cc(OC)c(OC)cc3n(CC(=O)Nc3cc(C)ccc3C)c2=O)cc1 the results were 2A StopGo 17%, Cruzain inh noDet 11%, LASV entry inh inconclusive and Cruzain Triton -5.3%.
Screening Cc1ccccc1-c1nc(CN2C(=O)CN=C(c3ccccc3)c3ccccc32)c(C)o1 returned 2A StopGo -22%, Cruzain inh noDet -6%, LASV entry inh inconclusive, Marburg entry inh inconclusive and Cruzain Triton -6.2%.
CCOC(=O)c1ccc(NC(=S)Nc2cc(C)cc(C)n2)cc1 was read as SARS PLpro yeast 18%, 2A StopGo 0%, RE007 growth inh 6%, Marburg entry inh -7%[46.1 µM] and NS1 inh 1%.
`O=c1[nH]c(=O)n(CCc2ccccc2)c(O)c1C=NCCN1CCNCC1` gave SARS PLpro yeast -4%, 2A StopGo -14%, Cruzain inh noDet 4%, RE007 growth inh 6%, LASV entry inh -1%, Marburg entry inh inconclusive, NS1 inh 2% and Cruzain Triton -1.1%.
For Cc1cc(C(=O)Nc2ccc(OCc3ccccc3)cc2)c(C)o1 the results were SARS PLpro yeast -2%, 2A StopGo 0%, RE007 growth inh inconclusive, LASV entry inh inconclusive, Marburg entry inh -16%[46.1 µM] and NS1 inh -5%.
`CCN1c2ccccc2-c2nc(SCC(=O)Nc3cc(OC)cc(OC)c3)ncc2S1(=O)=O` gave 2A StopGo 0%, Cruzain inh noDet -13%, LASV entry inh inconclusive and Cruzain Triton 3.4%.
Screening O=C(COC(=O)CCC(=O)c1ccccc1)NNC(=O)c1ccc(Cl)cc1 returned SARS PLpro yeast 7%, 2A StopGo -17%, RE007 growth inh 13%, LASV entry inh 3% and Marburg entry inh -3%.
For Clc1ccc(C2Nc3ccccc3-n3cccc32)cc1 (stereo not given) the results were SARS PLpro yeast -3%, 2A StopGo -14%, Cruzain inh noDet 4%, RE007 growth inh -2%, LASV entry inh -7%, Marburg entry inh -15%, NS1 inh -64% and Cruzain Triton -1.6%.
O=C(O)CN1C(=O)/C(=C/c2ccccc2Cl)Oc2ccccc21 was read as SARS PLpro yeast -2%, 2A StopGo -15%, RE007 growth inh 1% and NS1 inh 5%.
CN(C(=O)Cn1cnc([N+](=O)[O-])n1)C1CCCCC1 was read as SARS PLpro yeast 0%, 2A StopGo 14%, RE007 growth inh -6%, LASV entry inh -13%, Marburg entry inh 6%[46.1 µM] and NS1 inh 5%.
Screening CCN(CC)C(=O)CSc1nc2c(c(=O)n(C)c(=O)n2C)n1Cc1ccccc1 returned 2A StopGo -8%, Cruzain inh noDet -7%, LASV entry inh inconclusive, Marburg entry inh inconclusive and Cruzain Triton -5.5%.
COc1ccc(NC(=S)NCCCN2CCCC2)cc1 was read as SARS PLpro yeast 0%, 2A StopGo -3%, RE007 growth inh -16%, LASV entry inh inconclusive, Marburg entry inh inconclusive and NS1 inh -9%.
Cc1[nH]n(C(C)(C)C)c(=O)c1Sc1ccc(Cl)cc1 was read as SARS PLpro yeast -42%, 2A StopGo -10%, Cruzain inh noDet 0%, RE007 growth inh 10%, LASV entry inh 17%, Marburg entry inh 19%, NS1 inh -178% and Cruzain Triton 0.6%.
`COCCN(C(=O)COC(=O)/C=C/c1ccc2c(c1)OCO2)c1c(N)n(Cc2ccccc2)c(=O)[nH]c1=O` gave SARS PLpro yeast -4%, 2A StopGo -20%, RE007 growth inh 0%, LASV entry inh inconclusive and Marburg entry inh -6%.
Screening CS(=O)(=O)c1ccc(NCCc2ccccn2)c([N+](=O)[O-])c1 returned SARS PLpro yeast 4%, 2A StopGo 23%, RE007 growth inh 14%, LASV entry inh 6%, Marburg entry inh 5%[46.1 µM] and NS1 inh 6%.
Cc1[nH]c2ccccc2c1C(=O)CN1C(=O)NC(C)(c2ccc(Cl)cc2Cl)C1=O (stereo not given) was read as SARS PLpro yeast 16%, 2A StopGo -9%, Cruzain inh noDet inconclusive, RE007 growth inh 6%, LASV entry inh inconclusive, Marburg entry inh -24%, NS1 inh inconclusive and Cruzain Triton -11%.
For COc1ccc(C)cc1NC(C)C(=O)NC(=O)NC1CCCCC1 (stereo not given) the results were SARS PLpro yeast -2%, 2A StopGo -20%, RE007 growth inh 20%, LASV entry inh -3% and Marburg entry inh 5%.
COc1ccc(C2CC(=O)c3c([nH]c(C(=O)OCc4ccccc4)c3C)C2)cc1OC (stereo not given) was read as 2A StopGo inconclusive, Cruzain inh noDet 5%, LASV entry inh -1%[46.1 µM], Marburg entry inh -12%[46.1 µM] and Cruzain Triton -2.4%.
Screening CCOc1ccc(OCC)c(NC(=O)C2CCN(S(=O)(=O)c3c(C)noc3C)CC2)c1 returned SARS PLpro yeast 9%, 2A StopGo -9%, Cruzain inh noDet inconclusive, RE007 growth inh 3%, LASV entry inh -7%, Marburg entry inh inconclusive, NS1 inh -8% and Cruzain Triton -2.9%.
Screening Cc1ccc2onc(CC(=O)N3CCN(c4cccc(Cl)c4)CC3)c2c1 returned 2A StopGo -28%, Cruzain inh noDet inconclusive, LASV entry inh inconclusive and Cruzain Triton inconclusive.
O=C(Nc1nc2c(F)cc(F)cc2s1)c1ccc(S(=O)(=O)N2CCc3ccccc32)cc1 was read as 2A StopGo -27%, Cruzain inh noDet -17%, LASV entry inh inconclusive and Cruzain Triton -1.3%.

Arranged by heavy-atom count (descending): some entries from above.
Screening Cc1ccccc1-c1nc(CN2C(=O)CN=C(c3ccccc3)c3ccccc32)c(C)o1 returned 2A StopGo -22%, Cruzain inh noDet -6%, LASV entry inh inconclusive, Marburg entry inh inconclusive and Cruzain Triton -6.2%.
CCOC(=O)CN1C(=O)N[C@@H](c2ccccc2)C(C(=O)OC)=C1C was read as SARS PLpro yeast 0%, 2A StopGo 0%, Cruzain inh noDet -5%&-3%, RE007 growth inh 0%, LASV entry inh 6%, Marburg entry inh 6%, NS1 inh -7% and Cruzain Triton 6.0%&0.8%.
Screening CCOc1ccc(C2=CSC3=NCCN23)cc1[N+](=O)[O-] returned SARS PLpro yeast -3%, 2A StopGo 16%, RE007 growth inh -10%, LASV entry inh inconclusive, Marburg entry inh 14% and NS1 inh 6%.
